RE007 growth inh = qHTS Assay for Inhibitors of the HIV-1 protein Vpr; S. pombe RE007 Vpr strain, BacTiter-Glo ATP luminescence, 24 h; control for the full effect not named in the record; Potency, µM (doses to about 92.2 µM), without a hit: top-dose activity change, negative = less growth; 0.21% of 360,000 active; AID 651644, 2012; active = well fitted falling curve with a large enough effect; inconclusive = small, poorly fitted or top-dose-only effect; inactive = no such curve, though single readings can be large or run the other way;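 also: % is scaled to controls: 0 for no effect and ±100 for the full control effect; nearly all actives have a fitted effect of over 50% in size; the assay follows cell death caused by Vpr and the record does not say whether a fall means rescue or toxicity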
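Fission yeast RE007 carrying one integrated HIV-1 vpr copy, seeded at OD 0.01 in PMG+AL medium with 23 nL pinned compound. Grown 24 h at 30 degrees; viability read by BacTiter-Glo luminescence after 5 min.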
Cruzain Triton = qHTS Assay for Promiscuous and Specific Inhibitors of Cruzain (with detergent); purified cruzain, Z-FR-AMC fluorescence, 0.01% Triton; Potency, µM, inactives show max response, negative = inhibition, usual class: inhibitors; 0.43% of 200,000 active; AID 1478, 2009;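 also: plate controls were neutral wells for no effect and buffer without enzyme for full effect; nearly all actives have a fitted effect of over 40% in size; top concentration of the series not given in the record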
Target sequence (P25779 123-467 limits assumed): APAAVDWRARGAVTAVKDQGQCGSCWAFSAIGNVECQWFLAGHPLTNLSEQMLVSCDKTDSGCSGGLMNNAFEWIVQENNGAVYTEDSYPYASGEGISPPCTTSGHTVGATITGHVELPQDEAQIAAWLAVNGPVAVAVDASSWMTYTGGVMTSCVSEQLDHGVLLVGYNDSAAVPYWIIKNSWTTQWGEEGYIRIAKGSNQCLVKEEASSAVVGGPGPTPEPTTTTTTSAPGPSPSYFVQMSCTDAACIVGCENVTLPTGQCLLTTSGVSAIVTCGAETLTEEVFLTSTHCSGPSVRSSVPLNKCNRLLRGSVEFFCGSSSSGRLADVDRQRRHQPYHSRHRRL
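Sodium acetate buffer (100 mM, pH 5.5) containing 5 mM DTT and 0.01% Triton X-100 hosted 1.5 nM cruzain and test compound for 15 min at room temperature. Cleavage of 2 uM Z-FR-AMC was then tracked by fluorescence.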
LASV entry inh = qHTS for Inhibitors of binding or entry into cells for Lassa Virus; AID 540256, 2011; Potency, µM (doses to about 37.9 µM), inactives show at the top dose activity change, negative = inhibition, usual class: inhibitors; Lassa virus pseudotype entry inhibition, cell reporter; control for the full effect not named in the record; 1.2% of 300,000 active; active means well fitted inhibition curve with a large enough effect; inconclusive means small, poorly fitted or top-dose-only effect, or effect the other way; inactive means flat fitted curve, though single readings scatter; tested in HEK293 cells; also: % is scaled to controls: 0 for no effect and ±100 for the full control effect; nearly all actives have a fitted effect of over 50% in size; luciferase read-out
NS1 inh = qHTS Assay for Inhibitors of Influenza NS1 Protein Function. S. cerevisiae slowed by influenza A NS1, growth recovery by OD600. Potency, µM (highest dose often 46.1 µM), for the others: at the top dose activity, positive = more growth. 0.4% of 270,000 active. AID 2326, 2010; active means well fitted rising curve with a large enough effect; inconclusive means small, poorly fitted or top-dose-only effect; inactive means no such curve, though single readings can be large or run the other way; also: nearly all actives have a fitted effect of over 50% in size
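Recovery from NS1-induced slow growth read by OD600 in budding yeast switched to galactose assay medium (pH 6.0, -URA) at 1:100 dilution. Compound 23 nl per well; the matching strain lacking NS1 serves as control.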
Marburg entry inh = qHTS for inhibitors of binding or entry into cells for Marburg Virus. Marburg virus pseudotyped entry inhibition, cell reporter; control for the full effect not named in the record; about a third of the inactives were read at about 46 µM. Potency, µM (titrated, usually from 37.8 µM), for inactives: top-dose activity change, negative = inhibition, most hits filed as inhibitors. 1.8% of 300,000 active. AID 540276, 2011; active = well fitted inhibition curve with a large enough effect; inconclusive = small, poorly fitted or top-dose-only effect, or effect the other way; inactive = flat fitted curve, though single readings scatter; tested in HEK293 cells; about a fifth of its hits are not listed in these tables; also: % is scaled to controls: 0 for no effect and ±100 for the full control effect; luciferase read-out
2A StopGo = High Throughput Screening for Foot and Mouth Disease Virus Antivirals | human cells with a luciferase reporter of 2A StopGo recoding; control for the full effect not named in the record | Potency, µM (top dose mostly 57.9 µM), without a hit: at the highest dose signal change, negative = less light | AID 1159524, 2015 | 1.2% of 410,000 active; active = well fitted falling curve with a large enough effect; inconclusive = small, poorly fitted or top-dose-only effect; inactive = no such curve, though single readings can be large or run the other way; tested in HEK293T cells; also: % is scaled to controls: 0 for no effect and ±100 for the full control effect; nearly all actives have a fitted effect of over 45% in size; luciferase light after 4 h
Cruzain inh noDet = qHTS Assay for Promiscuous and Specific Inhibitors of Cruzain (without detergent); Cruzipain (Trypanosoma cruzi), P25779; 2.3% of 200,000 active; Potency, µM, for the others: max response, negative = inhibition, actives largely listed as inhibitors; purified cruzain, Z-FR-AMC fluorescence, no detergent;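 also: plate controls were enzyme without inhibitor for no effect and buffer without enzyme for full effect; nearly all actives have a fitted effect of over 40% in size; top concentration of the series not given in the record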
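Detergent-free condition (0.00005% Triton X-100) in acetate buffer pH 5.5 with DTT. 1.5 nM enzyme and compound were pre-mixed 15 min, then 2 uM Z-FR-AMC substrate added; reaction progress from fluorescence change between first and third reads (60 s).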
SARS PLP yeast = qHTS of Yeast-based Assay for SARS-CoV PLP; Potency, µM (top dose mostly 32.9 µM), for inactives: top-dose activity, positive = growth rescue; 0.19% of 330,000 active; AID 485353, 2010; S. cerevisiae expressing SARS-CoV PLpro, growth rescue; control for the full effect not named in the record; active means well fitted rising curve with a large enough effect; inconclusive means small, poorly fitted or top-dose-only effect; inactive means no such curve, though single readings can be large or run the other way; also: 0% is about no effect; nearly all actives have a fitted effect of over 55% in size; growth read by luminescence after 48 h
* marks the source's active call; other numbers are inactive results; ? = inconclusive; · = no result given; & = joins results of further samples; [ ] = remark or other dose. Unless noted, calls follow the shape of the dose curve; as a rule, active = well fitted curve in the direction sought with a large enough effect; inconclusive = small, poorly fitted or top-dose-only effect, or another doubt; inactive = no such curve, though single readings can be large; an effect the other way counts as inactive or inconclusive. Potency is read from the fitted curve at half-maximal effect.

cpd | Molecule | RE007 growth inh | Cruzain Triton | LASV entry inh | NS1 inh
1 | Cc1ccc(Oc2ccc(Cl)cc2NC(=O)c2ccc(F)cc2F)cc1 | 7% | -2.7% | 4% | 5%
2 | CSc1nnc(NC(=O)c2cccc(S(=O)(=O)N3CCOCC3)c2)s1 | 6% | · | 0% | 2%
3 | CCc1ccc(NC(=O)C(C)Sc2nc(-c3ccco3)c(C#N)c(=O)[nH]2)cc1 (stereo not given) | -7% | · | ? | 10%
4 | Cc1nnc(NC(=O)CSc2nc3ccccc3o2)s1 | -5% | 1.6% | -1% | -4%
5 | Cc1ccccc1NCc1cccn1-c1nnc(N2CCOCC2)s1 | · | 2.7% | ? | ·
6 | O=C(Cc1ccccc1[N+](=O)[O-])NNC(=O)Nc1ccc2c(c1)OCO2 | -8% | · | 1% | -4%
7 | COc1ccc(NC(=S)Nc2ccccc2Cl)cn1 | 6% | · | -27%[46.1 µM] | ·
8 | CC1CCCC(C)N1C(=O)CSc1nnnn1-c1cccc2c1CCCC2 (stereo not given) | -10% | -1.3% | -13% | 19%
9 | CCOC(=O)c1nc(NCc2ccccc2)c2ccccc2n1 | 7% | · | · | ·
10 | COc1cc(C(=O)NCc2nnc(SCC(=O)NCc3ccco3)o2)cc(OC)c1OC | 5% | · | -2%[46.1 µM] | -2%
11 | Cc1ccc(NC(=O)c2cccc(S(=O)(=O)N(C)C3CCCCC3)c2)nc1 | -2% | · | ? | ·
12 | CC(=O)c1sc(NC(=O)c2cccc(N3C(=O)CCC3=O)c2)nc1-c1ccccc1 | 15% | · | -5% | ·
13 | Brc1ccc(C2NCCS2)cc1 (stereo not given) | 18% | · | 14%[46.1 µM] | ·
14 | CCn1c(C)cc(C=C2C(=O)c3ccccc3C2=O)c1C | 19% | · | ? | -10%
15 | O=C(NC(=S)N1CCN(c2ccc([N+](=O)[O-])cc2Cl)CC1)c1ccco1 | -10% | -18% | 20% | 23%

cpd | Marburg entry inh | 2A StopGo | Cruzain inh noDet | SARS PLP yeast
1 | 2% | -21% | -9% | -1%
2 | 20% | 21% | · | 8%
3 | 6%[46.1 µM] | 19% | · | 14%
4 | 12% | · | -13% | -5%
5 | · | 0% | -3% | ·
6 | -7% | 0% | · | -2%
7 | 14%[46.1 µM] | 1% | · | 7%
8 | -16% | ? | -7% | -10%
9 | 5%[46.1 µM] | 1% | · | -2%
10 | 6%[46.1 µM] | 13% | · | -6%
11 | -10% | -11% | · | -13%
12 | 23% | 15% | · | -5%
13 | 9%[46.1 µM] | 2% | · | 1%
14 | 13µM* | -76% | · | -1%
15 | 7% | -19% | -11% | ?

Next part
cpd | Molecule | RE007 growth inh | Cruzain Triton | LASV entry inh | NS1 inh
16 | O=S(=O)(Nc1ccc(Cl)cc1NS(=O)(=O)c1ccccc1)c1ccccc1 | -1% | · | -2%[46.1 µM] | ·
17 | O=C1CCC(C(=O)OCc2cc(Cl)ccc2OC(F)F)N1 (stereo not given) | 2% | -2.0% | 7% | 7%
18 | CCOC(=O)C1CCCN(Cc2cccs2)C1 (stereo not given) | -10% | 5.2% | 16% | -3%
19 | Cc1ccccc1CSc1nnc(NC(=O)Cc2cccs2)s1 | 11% | -4.3% | 25% | 14%
20 | CCC(=O)N1CCN(c2ccc(NC(=O)c3ccccc3)cc2)CC1 | 13% | · | · | -4%
21 | CCOC(=O)N1CCc2c(sc3nc[nH]c(=O)c23)C1 | -3% | · | -2% | -2%
22 | COc1cccc(C(=O)NCCSc2ccc(Br)cc2)c1 | 12% | · | 0% | ·
23 | CC(=O)Nc1cccc(NC(=O)Nc2cccc(Cl)c2C)c1 | 11% | · | -17%[46.1 µM] | 2%
24 | COc1cccc(NC(=O)CSc2ccc(-c3sc(C)nc3C)nn2)c1 | -3% | · | ? | -4%
25 | O=C(O)CCn1nnc2ccccc21 | 11% | · | · | 3%
26 | Cc1cc(=O)[nH]n(CCO)c1=O | 16% | · | 2% | 0%
27 | O=C1c2ccccc2C(Nc2ccc3nc(-c4cccnc4)[nH]c3c2)N1Cc1ccco1 (stereo not given) | 2% | -29% | 3% | -60%
28 | Cc1cc(C)c(S(=O)(=O)NCc2ccc3c(c2)cc(C)n3C)c(C)c1 | 2% | -9.3% | · | 20%
29 | CCOc1ccc(C(=O)NC2CCN(C(=S)Nc3ccccc3C)CC2)cc1 | -8% | · | · | 1%
30 | Cc1nn(-c2ccc3nncn3n2)c(C)c1CCC(=O)Nc1ccc(OC(F)(F)F)cc1 | · | -0.6% | 24%[46.1 µM] | ·

cpd | Marburg entry inh | 2A StopGo | Cruzain inh noDet | SARS PLP yeast
16 | 4%[46.1 µM] | -21% | · | ·
17 | 17%[46.1 µM] | -15% | 8% | -1%
18 | -4% | 17% | 4% | 10%[6.58 µM]
19 | ? | 14% | 13% | 24%
20 | · | 16% | · | 0%
21 | 16% | -20% | · | 1%
22 | -2%[46.1 µM] | 4% | · | -3%
23 | -1%[46.1 µM] | -12% | · | 0%
24 | ? | 32µM* | · | 6%
25 | · | -21% | · | 0%
26 | -2%[46.1 µM] | 4% | · | -1%
27 | -6%&-6% | -15% | -1% | -22%
28 | · | -18% | ? | -1%
29 | · | 9% | · | 1%
30 | · | -13% | -4% | ·

Laid out differently: results already given
(27) O=C1c2ccccc2C(Nc2ccc3nc(-c4cccnc4)[nH]c3c2)N1Cc1ccco1 (stereo not given)
(21) CCOC(=O)N1CCc2c(sc3nc[nH]c(=O)c23)C1
compound no.,27,21
RE007 growth inh,2%,-3%
Cruzain Triton,-29%,·
LASV entry inh,3%,-2%
NS1 inh,-60%,-2%
Marburg entry inh,-6%&-6%,16%
2A StopGo,-15%,-20%
Cruzain inh noDet,-1%,·
SARS PLP yeast,-22%,1%

Other results.
cpd | Molecule | RE007 growth inh | Cruzain Triton | LASV entry inh | NS1 inh
31 | Cc1cc(-c2nc3ncccc3o2)ccc1NC(=O)CC(C)C | 11% | -17% | 5% | -44%
32 | NC(=O)CSP(=O)(c1ccccc1)c1ccccc1 | -14% | -7.4% | 11% | 2%
33 | CC(C)(C)c1ccc2c(c1)C(=O)c1ccccc1C2=O | 13% | -13% | 8.9µM* | -9%
34 | Cc1c(Cl)cccc1NC(=O)CC1SC(=NCC2CCCO2)NC1=O (stereo not given) | 5% | -2.1% | 7% | 5%
35 | C[n+]1cn(Cc2cc(Cl)ccc2OC(F)F)c2ccccc21 | -16% | · | 26%[46.1 µM] | -1%
36 | CC(=O)Nc1cccc(NC(=O)CSc2nc(=O)n3cccc(C)c3n2)c1 | -14% | · | 10% | ·
37 | COc1ccc(C(CC(=O)O)NC(=O)COc2cc(C)ccc2C)cc1OC (stereo not given) | 7% | · | -1% | ·
38 | O=C(Oc1ccc(C(=S)N2CCOCC2)cc1)c1cccc([N+](=O)[O-])c1 | -4% | · | · | 16%
39 | O=S(=O)(Nc1nc2ccccc2nc1NCc1ccco1)c1cccs1 | -18% | -13% | -17% | -44%
40 | Cc1c(-c2ccccc2)sc(Br)c1C(=O)N1CCOCC1 | -9% | -2.1% | ? | -52%
41 | CCCc1nnc(NC(=O)Nc2ccccc2Cl)s1 | · | -1.6% | ? | ·
42 | CCC(c1nnnn1CCOC)N(Cc1cc2c(C)cc(C)cc2[nH]c1=O)CC1CCCO1 (stereo not given) | 3% | 1.8% | ? | -9%
43 | O=C(c1c(F)cccc1F)N1CCCC1 | 14% | · | · | 2%
44 | COc1ccc(OC)c(/C=C(\C#N)c2nc3ccccc3c(=O)[nH]2)c1 | · | -2.6% | 14%[46.1 µM] | ·
45 | Cc1ccc(Nc2nc3ccccc3n3cnnc23)cc1C | -4% | · | -20%[46.1 µM] | -2%

cpd | Marburg entry inh | 2A StopGo | Cruzain inh noDet | SARS PLP yeast
31 | ? | 26% | 0% | 18%
32 | 3% | -1% | -7% | -3%
33 | ? | 6% | -14% | -24%
34 | 10% | -19% | -3% | -5%
35 | -10%[46.1 µM] | -5% | · | 1%
36 | 27% | -4% | · | ·
37 | ? | -22% | · | -1%
38 | · | 2% | · | -2%
39 | 10% | 8% | -19% | -21%
40 | -30% | -26% | 10% | 8%
41 | ? | 62%[activator] | -12% | ·
42 | -18% | -30% | -3% | -2%
43 | · | 0% | · | 0%
44 | · | -23% | 6% | ·
45 | 2%[46.1 µM] | -22% | · | 0%

New compounds follow.
cpd | Molecule | RE007 growth inh | Cruzain Triton | LASV entry inh | NS1 inh
46 | COc1cccc(/C=N/NC(=O)CN(C2=NS(=O)(=O)c3ccccc32)c2ccccc2)c1 | 3% | -5.6% | ? | 23%
47 | CC(OC(=O)c1ccc2c(c1)NC(=O)CS2)C(=O)c1ccc(F)cc1 (stereo not given) | 8% | · | -28%[46.1 µM] | ·
48 | O=C(Nc1ccccc1)N(C1=NCCC1)c1ccc(OC(F)F)cc1 | 10% | -4.3% | ? | -89%
49 | CCN(C(=O)CSc1nnc(Nc2ccccc2)s1)C1CCS(=O)(=O)C1 (stereo not given) | -3% | · | 24%[46.1 µM] | ·
50 | S=c1[nH]nc(-c2ccco2)n1/N=C/c1ccc(Cl)cc1 | 2% | -9.9% | 8% | -23%

cpd | Marburg entry inh | 2A StopGo | Cruzain inh noDet | SARS PLP yeast
46 | ? | -7% | 28% | 5%
47 | -13%[46.1 µM] | 1% | · | -8%
48 | -3% | -12% | 12% | -18%
49 | ? | 37%[activator] | · | 2%
50 | 5% | -30% | 7% | -4%

Bioassay records as filed in PubChem BioAssay.
